TRPML1 agonist: human mucolipin-1 channel agonism. Q9GZU1. TRPML1-expressing cells, Ca2+ dye fluorescence, FDSS; host cell line not named in the record; reference of the full effect not given here. activation, % (test concentration not listed). 410,000 compounds, 0.12% hits. AID 624414; in the data active = activation above about 50%; inconclusive = about 30% to 50%; inactive = below about 30%; note: 0% is about no effect; the text of the record puts the active cut at 80%
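TRPML1-DL cells, Tet-induced overnight (~16 h, 37 degrees C), loaded 45-90 min at room temperature with Ca8 no-wash calcium dye plus quencher. FDSS fluorescence: 10 s baseline, compound pin-transfer, 110 s agonist read, then EC80 54-4 (4uM final) and 110 s antagonist read.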
TRPV1 PAM: enhances activation of the human vanilloid receptor TRPV1; Q8NER1; TRPV1-expressing cells, Fluo-8 calcium influx, capsaicin EC20 potentiation; host cell line not named in the record; control for the full effect not named in the record; potentiation, % at 8.33 µM; 320,000 compounds, 0.02% hits; AID 540277; active means potentiation above 80%; inconclusive means 30% to 80%; inactive means below 30%; note: 0% is about no effect
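Cells expressing TRPV1 were dye-loaded with Fluo-8 and read kinetically: 10 s baseline, 3 min after compound (agonist portion), then 2 min after EC20 capsaicin (allosteric enhancer portion). Calcium-bound dye fluorescence at 480/520 nm.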
CtBP-E1A blk: blocks the CtBP interaction with E1A. AlphaScreen GST-E1A/His-CtBP binding, 1536-well; active compounds read low; control for the full effect not named in the record. activity change, % (no concentration beside the values). 340,000 compounds, 0.49% hits; in the data active means activity change below about -65%; inconclusive means about -30% to -65%; inactive means above about -30%; note: % is set by controls: 0 for no effect and ±100 for the full control effect
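Steps: dispense buffer (Tris pH 8.0, NaCl 300 mM, TCEP 1 mM, BSA, Tween 20); add 5X protein mix (GST-E1A, His-CtBP, 125 nM each); pin 23 nL compound; 2 h at 37 °C, dark; add 5X beads (50 ug/mL); 1 h; read.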
Six1-Eya2 inh: inhibitors of human Six1/Eya2 interaction | 360,000 compounds, 0.56% hits | activity change, % (concentration not given with the values) | AlphaScreen GST-Six1/His-Eya2 binding, biochemical; active compounds read low; control for the full effect not named in the record | Q15475+O00167; in the data active = activity change below about -65%; inconclusive = about -30% to -65%; inactive = above about -30%; note: % is set by controls: 0 for no effect and ±100 for the full control effect
Target sequence (O00167 whole entry, looked up): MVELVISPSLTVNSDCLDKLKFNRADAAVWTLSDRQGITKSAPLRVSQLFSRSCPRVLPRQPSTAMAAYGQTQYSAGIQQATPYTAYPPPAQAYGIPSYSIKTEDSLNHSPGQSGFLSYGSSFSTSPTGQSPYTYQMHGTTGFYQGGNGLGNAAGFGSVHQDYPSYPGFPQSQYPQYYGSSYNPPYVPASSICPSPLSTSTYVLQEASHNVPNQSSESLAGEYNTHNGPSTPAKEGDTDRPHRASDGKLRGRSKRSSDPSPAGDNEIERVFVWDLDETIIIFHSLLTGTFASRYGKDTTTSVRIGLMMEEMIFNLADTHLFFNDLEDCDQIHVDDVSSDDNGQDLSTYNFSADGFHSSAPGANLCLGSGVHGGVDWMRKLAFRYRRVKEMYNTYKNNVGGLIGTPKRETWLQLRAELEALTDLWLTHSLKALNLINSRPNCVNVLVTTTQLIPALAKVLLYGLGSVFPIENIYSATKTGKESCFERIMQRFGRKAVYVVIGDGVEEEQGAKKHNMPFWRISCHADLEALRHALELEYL
Target sequence (Q15475 whole entry, looked up): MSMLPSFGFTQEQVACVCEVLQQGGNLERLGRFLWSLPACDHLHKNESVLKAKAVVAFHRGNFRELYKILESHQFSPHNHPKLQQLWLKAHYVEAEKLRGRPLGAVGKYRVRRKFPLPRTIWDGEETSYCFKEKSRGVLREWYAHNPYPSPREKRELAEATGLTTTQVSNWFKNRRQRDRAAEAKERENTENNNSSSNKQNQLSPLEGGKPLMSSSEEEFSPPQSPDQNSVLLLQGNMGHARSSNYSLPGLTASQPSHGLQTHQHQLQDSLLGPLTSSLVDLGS
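AlphaScreen with GST-Six1 and His-Eya2 (5X mix: 250 nM and 500 nM), glutathione donor and nickel acceptor beads; buffer 50 mM Tris pH 8.0, 300 mM NaCl, 1 mM TCEP; 1 h at 37 C in the dark.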
TRPML1 inh: inhibitors of human TRPML1 channel; Q9GZU1; TRPML1-inducible cells, Ca2+ dye fluorescence, FDSS; active compounds read low; inhibition of EC80 agonist-evoked calcium signal; activity change, negative = inhibition, % (concentration not given with the values); 390,000 compounds, 0.02% hits; in the data active means activity change below about -50%; inconclusive means about -30% to -50%; inactive means above about -30%;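 note: stimulus is agonist 54-4 at its EC80 concentration; % is set by controls: 0 for no effect and ±100 for the full control effect; the text of the record puts the active cut at -80%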
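Tet-induced TRPML1-DL cells loaded with Ca8 no-wash calcium dye were read kinetically on FDSS. Compound addition was followed by EC80 agonist 54-4 (4 uM final); inhibition was read over 110 s.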
D2 PAM: positive allosteric modulators of human D2 dopamine receptor | P14416 | DiscoveRx D2 beta-arrestin cells, luminescence, 90 min; 100% = 57 uM dopamine signal | potentiation, % (concentration not given with the values) | 360,000 compounds, 0.23% hits | AID 624464; active = potentiation of 50% or more; inconclusive = 30% to 50%; inactive = 30% or less;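 note: tested on top of an EC20 dose of dopamine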
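D2 cells co-treated with compound plus 50 nM dopamine (EC20) for 90 min at 37 deg C to detect potentiation. Beta-arrestin recruitment was read as enzyme-fragment luminescence after 1 h at ambient temperature. Full response was set by 57 uM dopamine.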
The depositor's hits bear a star; ? = inconclusive; . = not tested or not shown; & = joins results of further samples. Compounds as they come. About 0.95% of those tested had a hit in this group.

1: CN(C)S(=O)(=O)c1cccc(C(=O)NCC2CCCO2)c1 (stereo unspecified)
2: CCOc1cc(/C=N/N=C2/NC(=O)C(CC(=O)O)S2)ccc1OS(=O)(=O)c1ccc(C)cc1 (stereo unspecified)
3: CCOC(=O)c1cnn(Cc2ccccc2)c1N
4: COc1cccc(C2C3=C(CC(C)(C)CC3=O)Nc3cc4c(cc32)OCO4)c1 (stereo unspecified)
5: CCCCN(C=O)c1c(CC)nc2c(OCCC)cccn12
6: COc1cc2oc3cc(C)oc(=O)c3c2cc1OC

assay / entry,1,2,3,4,5,6
TRPML1 agonist,0.7,-0.6,0.5,3.3,-0.8,-0.5
TRPV1 PAM,-7,-4,6,12,.,-7
CtBP-E1A blk,17,-2,8,-6,0,.
Six1-Eya2 inh,7,0,3,-4,2,-6
TRPML1 inh,13,-5,-5,5,.,-2
D2 PAM,-24,-5,8,-4,-3,-5

7: COc1ccc(NS(=O)(=O)c2csc(C(N)=O)c2)cc1OC
8: Cc1c(NC(=O)CSc2ncn[nH]2)c(=O)n(-c2ccccc2)n1C
9: CC1CCC(=O)N(CCSc2ccccc2)CC1 (stereo unspecified)
10: O=C(CN(Cc1ccccc1)S(=O)(=O)c1ccc(Br)cc1)N/N=C/c1ccccc1C(=O)O
11: O=C(OCc1ccc([N+](=O)[O-])cc1)c1cnc(Cl)c(Cl)c1
12: CC(C(=O)NC1CCCC1)N(c1ccc(Oc2ccccc2)cc1)S(C)(=O)=O (stereo unspecified)

assay / entry,7,8,9,10,11,12
TRPML1 agonist,0.1,-0.2,-1.1&-0.4,1.9,0.1,-0.2
TRPV1 PAM,5,?,-11,15,-13,-10
CtBP-E1A blk,-7,8,1,-7,2,0
Six1-Eya2 inh,-21,13,3,0,-1,5
TRPML1 inh,-11,6,-10,8,4,2
D2 PAM,-4,-8,-17,-6,1,-8

13: CCn1cc([N+](=O)[O-])c(C(=O)Nc2ccn(Cc3ccccc3)n2)n1
14: O=C(O)c1cccc(Br)c1
15: CCN(CC)S(=O)(=O)c1cc(C(=O)N=c2sccn2C)ccc1OC
16: COc1ccccc1N1CCN(S(=O)(=O)c2cc(C(F)(F)F)cc(C(F)(F)F)c2)CC1
17: Cc1ccc(S(=O)(=O)N(C)CC(=O)OCC(=O)NC(=O)Nc2ccc3c(c2)OCCO3)cc1
18: O=C(c1ccc2c(c1)OCO2)N(CC1CCCO1)C1(C(=O)NC2CCCCC2)CCCCC1 (stereo unspecified)

assay / entry,13,14,15,16,17,18
TRPML1 agonist,0.1,.,0.7,1.9,1.6,1.2
TRPV1 PAM,5,.,-4,26,2,15
CtBP-E1A blk,7,4,?,-15,-9,-1
Six1-Eya2 inh,5,8,?,-6,-16,4
TRPML1 inh,4,.,7,14,11,-7
D2 PAM,-14,-18,-4,-9,-7,-4

The list goes on, starting with the last two of the part before.
17: Cc1ccc(S(=O)(=O)N(C)CC(=O)OCC(=O)NC(=O)Nc2ccc3c(c2)OCCO3)cc1
18: O=C(c1ccc2c(c1)OCO2)N(CC1CCCO1)C1(C(=O)NC2CCCCC2)CCCCC1 (stereo unspecified)
19: CSc1nnc(-c2ccccc2SC)o1
20: O=C(Nc1ccccc1Br)C1CCN(C(=O)Cc2ccccc2)CC1
21: O=C(Cn1nc(-c2ccc3c(c2)OCCO3)ccc1=O)Nc1ccc(-n2cnnn2)cc1
22: CC1CCN(S(=O)(=O)c2ccc3c(c2)N(CC(=O)NCCCOC(C)C)C(=O)CS3)CC1
23: COc1ccc(CC(=O)NCC(=O)N/N=C(/C)c2ccco2)cc1
24: COc1ccc(-n2cc(C(=O)c3cc4ccccc4oc3=O)c(C(C)=O)n2)cc1

assay / entry,17,18,19,20,21,22,23,24
TRPML1 agonist,1.6,1.2,-0.4,0.5,0.8,-0.7,0.3,0.1
TRPV1 PAM,2,15,?,9,2,1,-6,0
CtBP-E1A blk,-9,-1,.,9,.,0,2,2
Six1-Eya2 inh,-16,4,10,5,3,-3,5,0
TRPML1 inh,11,-7,11,-10,23,-2,14,7
D2 PAM,-7,-4,-6,24,1,-4,-7,-2

25: O=C1CCC(C(=O)N(CCO)Cc2ccccc2)CN1CCc1cccc(F)c1 (stereo unspecified)
26: CC(=O)Nc1c(O)nc(C)[nH]c1=O
27: CC(C)(C)n1ncc2c(=O)n(CC(=O)Nc3ccc4c(c3)OCCO4)cnc21
28: COc1cc(NC(=O)c2ccco2)c(OC)cc1NC(=O)c1cc(OC)c(OC)c(OC)c1
29: CCOc1ccc(NC(=O)CN2CCN(CC(=O)Nc3ccc(OC)cc3OC)CC2)cc1
30: O=C(NCCCO)C(=O)Nc1cc2c3c(c1)CCC(=O)N3CCC2

assay / entry,25,26,27,28,29,30
TRPML1 agonist,-0.2,.,-0.9,-0.1,0.2,3.0
TRPV1 PAM,.,27,6,10,15,-5
CtBP-E1A blk,2,0,1,-4,11,.
Six1-Eya2 inh,3,4,-7,-4,-3,6
TRPML1 inh,8,.,8,-6,-1,1
D2 PAM,-9,4,-10,14,7,-4

31: O=S(=O)(Nc1ccc2c(c1)OCCO2)c1ccc(F)cc1
32: CCC(Cc1ccccc1)NC(=O)C1CCC(CNc2c(N3CCCC3)c(=O)c2=O)CC1 (stereo unspecified)
33: CC(=O)Nc1cccc(NC(=O)CSc2nc(C3CC3)nc3ccccc23)c1
34: Cc1ccc(OCC(O)CN2CCN(CC(O)COC(C)C)CC2)c(C(C)(C)C)c1 (stereo unspecified)
35: O=C(O)c1cccc(NC(=O)c2cccc(S(=O)(=O)N3CCc4ccccc4C3)c2)c1
36: COC(=O)[C@H](Cc1c[nH]c2ccccc12)NC(=O)Cc1c[nH]c2ccccc12

assay / entry,31,32,33,34,35,36
TRPML1 agonist,4.1,-0.3,1.5,0.9,2.0,0.0
TRPV1 PAM,5,-3,0,-20,19,-2
CtBP-E1A blk,2,0,-1,2,7,0
Six1-Eya2 inh,0,-9,-8,0,-4,-4
TRPML1 inh,7,-10,4,4,-7,-13
D2 PAM,6,-7,-2,-19,-9,-18

37: Cc1ccc(Nc2ccccc2)cc1
38: COc1cc2nc(C3CCC3)n(NC(=O)COc3ccccc3)c(=O)c2cc1OC
39: CC(=O)Nc1ccc(C(=O)CSc2nnc(-c3ccccc3F)n2CCc2ccccc2)cc1
40: CC(=O)N1CCN(Cc2nc(C(c3ccccc3)c3ccccc3)no2)CC1
41: CCOc1ccc(OCCC(=O)OCC(=O)N2CCN(S(=O)(=O)c3ccc(Cl)cc3)CC2)cc1
42: CSCCC(NC(=O)c1ccccc1Cl)C(=O)NCC1COc2ccccc2O1 (stereo unspecified)

assay / entry,37,38,39,40,41,42
TRPML1 agonist,0.9,2.7,0.7,0.6,-0.9,-1.2
TRPV1 PAM,-2,4,.,5,-3,-35
CtBP-E1A blk,-7,-26,.,1,1,7
Six1-Eya2 inh,-7,-23,-3,2,0,1
TRPML1 inh,-2,-6,-3,-2,-8,24
D2 PAM,-14,-15,-7,-2,8,-26

43: CC(=O)c1cc(NC(=O)c2ccc(C)cc2)c(=O)oc1C
44: CCOC(=O)CN1N=C(/C=C/c2ccccc2)CCC1=O
45: Cc1nc2ccccc2c2nc(NC(=O)Cc3ccccc3)nn12
46: Cc1cnc(NC(=O)CCCc2nc3ccccc3s2)s1
47: COc1ccc(/C=C2\SC(=O)N(CCC(=O)N3CCN(C)CC3)C2=O)cc1
48: Cc1ccccc1N1CCN(C(=O)c2cccnc2)CC1

assay / entry,43,44,45,46,47,48
TRPML1 agonist,0.8,-1.2,1.0,1.6,0.7,0.9
TRPV1 PAM,0,.,3,18,-2,.
CtBP-E1A blk,0,-3,-18,-3,10,12
Six1-Eya2 inh,-8,-6,-16,-9,-4,2
TRPML1 inh,3,0,8,-19,5,3
D2 PAM,-10,-10,-5,-21,-3,-4

49: CCOC(=O)C1=C(C)C2C3C(=O)N(c4ccccc4C)C(=O)C3C1(C)C1C(=O)N(c3ccccc3C)C(=O)C21 (stereo unspecified)
50: Cc1cc(C)c(NC(=O)C(C)c2cccc(C(=O)c3ccccc3)c2)c(C)c1 (stereo unspecified)
51: CCOC(=O)C1=C(C)Nc2ncnn2C1c1c[nH]c2ccccc12 (stereo unspecified)
52: Cc1cc(NC(=O)CSc2nc(=O)cc(N)n2-c2ccc(C)c(C)c2)no1
53: CC1CCCN(C(=O)CN2C(=O)NC(C)(c3ccc4ccccc4c3)C2=O)C1 (stereo unspecified)
54: Cn1c(CNC(=O)c2ccccc2F)nnc1SCC(=O)Nc1nncs1

assay / entry,49,50,51,52,53,54
TRPML1 agonist,0.9,1.4,0.4,-0.4,0.3,0.3
TRPV1 PAM,-8,-3,-13,4,.,-5
CtBP-E1A blk,0,4,4,0,3,-3
Six1-Eya2 inh,35,0,0,-3,-1,4
TRPML1 inh,-3,-5,17,12,-10,22
D2 PAM,28,6,1,-5,-4,-9

Sorted by SMILES length (low to high): 3 of the compounds above.
45: Cc1nc2ccccc2c2nc(NC(=O)Cc3ccccc3)nn12
29: CCOc1ccc(NC(=O)CN2CCN(CC(=O)Nc3ccc(OC)cc3OC)CC2)cc1
36: COC(=O)[C@H](Cc1c[nH]c2ccccc12)NC(=O)Cc1c[nH]c2ccccc12

assay / entry,45,29,36
TRPML1 agonist,1.0,0.2,0.0
TRPV1 PAM,3,15,-2
CtBP-E1A blk,-18,11,0
Six1-Eya2 inh,-16,-3,-4
TRPML1 inh,8,-1,-13
D2 PAM,-5,7,-18

The list goes on.
55: CS(=O)(=O)N(CCc1ccccc1)CC(=O)NCc1ccc2c(c1)OCO2
56: COc1ccc(CSc2n[nH]c(C)n2)cc1[N+](=O)[O-]
57: O=S(=O)(NCc1ccco1)c1cnc(Cl)c(Br)c1
58: Cc1ccc(NC(=O)NC2CCCCCCC2)cc1C
59: CCc1ccc(NC(=O)C2=CC=CN3CCS(=O)(=O)N=C23)cc1
60: COc1cccc(NC(=O)CN(C)C(C)C(=O)Nc2ccc(C(C)=O)cc2)c1 (stereo unspecified)
61: CCN(CC(=O)NCc1cccs1)C(=O)c1ccccc1F

assay / entry,55,56,57,58,59,60,61
TRPML1 agonist,-1.0,-0.1,1.9,0.8,0.5,0.6,0.1
TRPV1 PAM,19,-5,4,-5,0,-3,27
CtBP-E1A blk,1,-11,-19,-20,-11,-4,9
Six1-Eya2 inh,-2,-18,4,-22,5,0,5
TRPML1 inh,10,-5,-14,-29,2,27,-10
D2 PAM,0,-12,9,-9,-3,-4,-9
